LANA-nucl inh – inhibitors of KSHV LANA binding to nucleosomes. FITC-LANA1-23 / chicken nucleosome fluorescence polarization; hits give low values. z-score (concentration not given with the values). 0.3% of 51,000 active. AID 720717;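 active means both repeat wells score below -2 in polarization z-score versus plate sample wells, excluding overly bright wells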;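 further: 100 nL library stock added to about 30 µL; numbers are from one replicate; some results filed as inactive read as strong as hits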
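Assay system: purified chicken nucleosomes with FITC-labelled LANA N-terminal peptide (1-23) / Probe or stimulus: 50 nM FITC-LANA1-23 probe / Compound dosing: pin-transferred compound, 100 nL / Times: compound with peptide–nucleosome mix 10–45 min at room temperature / Technique: fluorescence polarization, 480 nm excitation, 535 nm parallel and perpendicular emission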
BasE inh – blocks the Acinetobacter baumannii siderophore enzyme BasE; inhibition, % (no concentration beside the values); AID 485350; purified BasE, fluorescence polarization binding displacement; 0.1% of 84,000 active;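 active means both replicates above 25% with normal brightness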;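 further: 0% = negative plate control signal and 100% = positive plate control signal; stock transfer was 100 nL into about 30 µL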
Active calls of the source: *; · = no result given.

structure | LANA-nucl inh | BasE inh
CCCn1c(=O)c(C(=O)Nc2nccs2)c(O)c2ccccc21 | -0.24 | -1.3
COc1ccc(C(=O)C2CC2c2ccc(Cl)cc2)cc1 (stereo not given) | 2.6 | ·
COC(=O)c1sc(S(=O)(=O)Nc2ccc3cn[nH]c3c2)c(C(=O)OC)c1C | · | 8.3
CCn1c2ccccc2c2cc(NC(=O)c3cc4cc5cc(OC)ccc5nc4o3)ccc21 | -0.65 | 1.2
O=C(Cc1ccccc1)Nc1ccccc1N1CCCC1 | · | 2.2
N=C1CNc2ccccc2C(=O)O1 | -0.43 | 4.3
NC(CO)C(=O)N/N=C/c1ccc(O)c(O)c1O (stereo not given) | 1.3 | 1.8
CC(C(=O)N1CCc2ccccc21)N1CCN(S(=O)(=O)/C=C/c2ccccc2)CC1 (stereo not given) | · | 2.0
O=C1CSCc2ccccc21 | 0.35 | 1.5
CCOC(=O)N1CCN(CN2C(=S)SC3=NC(=O)CCCN32)CC1 | -0.62 | -0.1
O=C(NCCC1=CCCCC1)C1CCCN(C(=O)c2cnn(-c3ccccc3)c2-n2cccc2)C1 (stereo not given) | -0.97 | -0.1
Cc1nn(-c2ccccc2)c(C)c1CCC(=O)Nc1ccc(S(C)(=O)=O)cc1 | · | 1.3
CC(C)NC(=S)NCc1cccnc1 | -0.8 | 2.9
CC(C)(C)c1ccc(S(=O)(=O)N2CCCC2C(N)=O)cc1 (stereo not given) | · | 0.3
O=C(O)/C(=C/C(=O)c1ccccc1)Nc1ccccc1 | 0.17 | -1.1
Cc1ccccc1-c1nnc(SC(C)C(=O)Nc2ccc3c(c2)OCO3)n1C (stereo not given) | -1.6 | -0.5

Among those listed so far, 3 have four or more nitrogen atoms.
structure | LANA-nucl inh | BasE inh
CCOC(=O)N1CCN(CN2C(=S)SC3=NC(=O)CCCN32)CC1 | -0.62 | -0.1
O=C(NCCC1=CCCCC1)C1CCCN(C(=O)c2cnn(-c3ccccc3)c2-n2cccc2)C1 (stereo not given) | -0.97 | -0.1
Cc1ccccc1-c1nnc(SC(C)C(=O)Nc2ccc3c(c2)OCO3)n1C (stereo not given) | -1.6 | -0.5

Going on with the list.
structure | LANA-nucl inh | BasE inh
O=C(NC(=S)NCc1cccnc1)c1ccc2c(c1)OCO2 | -0.73 | 6.2
O=C(CC1Sc2ccccc2NC1=O)OCC(=O)N1CCN(S(=O)(=O)c2ccccc2)CC1 (stereo not given) | · | 0.4
CC1(C)CC(CCN)(c2ccccc2)CCO1 (stereo not given) | -0.82 | 0.1
CCCCc1ccc(Nc2nc3cc(Cl)ccc3o2)cc1 | · | -0.7
COc1ccc2oc(C(=O)OCC(=O)Nc3ccc(S(=O)(=O)N4CCOCC4)cc3)c(C)c2c1 | · | -1.7
CC(C)(C)OC(=O)N1CCCCC1CN (stereo not given) | 0.71 | 1.5
NC(=S)N/N=C/c1ccccc1O | -0.86 | 4.1
Cc1cc(=O)n(CC(=O)O)c2ccccc12 | -0.29 | -0.1

Six compounds from above, arranged by length of the SMILES, highest first:
structure | LANA-nucl inh | BasE inh
COc1ccc2oc(C(=O)OCC(=O)Nc3ccc(S(=O)(=O)N4CCOCC4)cc3)c(C)c2c1 | · | -1.7
O=C(NC(=S)NCc1cccnc1)c1ccc2c(c1)OCO2 | -0.73 | 6.2
CCCCc1ccc(Nc2nc3cc(Cl)ccc3o2)cc1 | · | -0.7
CC1(C)CC(CCN)(c2ccccc2)CCO1 (stereo not given) | -0.82 | 0.1
CC(C)(C)OC(=O)N1CCCCC1CN (stereo not given) | 0.71 | 1.5
NC(=S)N/N=C/c1ccccc1O | -0.86 | 4.1

Remaining list, next part
structure | LANA-nucl inh | BasE inh
COc1ccc(-c2nn(C)c3sc(C(=O)Nc4cccc(C#N)c4)cc23)cc1OC | 0.12 | 0.2
COC(=O)c1ccc(COC(=O)c2cc3c(s2)CCCCC3)o1 | · | 1.3
O=C1CC(NCC2CCCCC2)C(=O)N1c1ccccc1 (stereo not given) | -1.4 | 0.9
Nn1c(C(=O)N2CCCC2)nc2ccccc2c1=O | · | 0.0
O=C(Nc1ccc(OC(F)F)cc1)NC1CCN(C(=O)OCc2ccccc2)CC1 | -0.048 | 0.7
COc1ccc2c(c1)N(C)/C(=c1/s/c(=C3/C(=O)N(c4ccccc4)N=C3C)n(C)c1=O)S2 | -0.49 | 1.2
Cc1cc(C(=O)CSC(C)c2nc3ccccc3c(=O)[nH]2)c(C)n1C (stereo not given) | · | -0.5
COC(=O)C(Sc1nc(C)cc(C)c1C#N)c1ccccc1 (stereo not given) | -0.24 | -1.4
CC(=O)NCCOc1nc(N2CCCCC2)nc(N2CCCCC2)n1 | 0.44 | 1.8
CCOC(=O)CSc1ncnc2sc3c(c12)CCC3 | -1.3 | -0.6
COc1cc(N(C(=O)Cn2nnc3ccccc32)C(C(=O)NCC2CCCO2)c2ccc(F)cc2)ccc1-n1cnnn1 (stereo not given) | 2.2 | -1.2
CC1CN(C(=O)COC(=O)c2ccc(S(=O)(=O)N3CCCC3)cc2)CC(C)O1 (stereo not given) | · | 0.7
CC(C)=CC1C(C(=O)NN)C1(C)C (stereo not given) | · | 3.3
CS(=O)(=O)CCC1NC(=O)NC1=O (stereo not given) | · | 0.1
O=C1c2ccccc2-c2oc(=O)c3ccccc3c21 | -0.87 | 1.0
Cc1cc(C)nc(NC(=S)Nc2ccccc2)n1 | · | 1.6
COc1ccc(CCNC(=O)CN2CCC(C)CC2)cc1 | 0.4 | 1.9
O=C(Nc1ccc(-c2n[nH]c(=S)o2)cc1)c1ccccc1Br | -1.1 | 3.5
CCCCn1c(=N)n(CC(=O)c2ccc(Cl)c(Cl)c2)c2ccccc21 | 1.1 | -11
[O-][n+]1onc2c1CCC1N(O)C(c3ccccc3)CC21O (stereo not given) | 1.2 | 2.0
CC1=NN(C(=O)c2ccccc2)C(O)(C(C)(C)C)C1 (stereo not given) | 0.16 | -1.2
O=C(CN1C(=O)CSc2ccccc21)NC1CCCCCCC1 | -0.78 | 2.3
Cc1cc2ncn(CCOc3ccccc3C)c2cc1C | -0.39 | -4.4
CSc1nnc(CCNC(=O)C(c2ccccc2)C2CCCC2)n1C (stereo not given) | -0.67 | 1.1
O=C1CSC(=S)N1Nc1ccccc1 | -0.38 | -0.5
O=C(N/N=C/c1cccc2c1OCCO2)c1ccc(CN2CCOCC2)cc1 | 0.34 | 3.0
COCc1cc(=O)[nH]c(-c2ccc(Cl)cc2)n1 | 0.43 | 3.3
C#CCn1c(=NC(=O)CC)sc2ccccc21 | 0.64 | 0.0
CC1C(=O)N2CCCc3cc(S(=O)(=O)N4CCCCC4)cc1c32 (stereo not given) | -1 | 0.6
O=C(NCc1ccccc1)C1CCCN(S(=O)(=O)c2ccccc2)C1 (stereo not given) | -0.4 | 2.8
Nc1ccnc2cc(C(F)(F)F)ccc12 | -0.63 | -1.0
C#CCSC1=N/C(=C/N(C)C)C(=O)N1 | 0.038 | 2.1
COc1ccc(C(=O)NCC2COc3ccccc3O2)cc1 (stereo not given) | 0.021 | -1.3
O=C1/C(=C\c2ccc(F)cc2)N=C(c2ccccc2)N1Cc1ccc(F)cc1 | · | 0.2
N#CCC1NCCc2ccccc21 (stereo not given) | -1.1 | -1.9
O=c1c2cnn(-c3ccccc3)c2ncn1/N=C/c1ccncc1 | · | 4.0
COc1cccc(NC(=O)COC(=O)c2cccc(S(=O)(=O)N(C)C)c2)c1 | · | -3.3
O=C(CN(Cc1ccccc1)C(=O)Cn1nnc(-c2ccc(F)cc2)n1)NC1CCCC1 | -0.49 | -1.5
Cn1c(SCCCn2c(=O)[nH]c3ccccc32)nnc1C(F)(F)F | · | 0.9
CCc1n[nH]c(=S)n1/N=C/c1ccsc1 | · | 2.1
CN(C)C(=S)Nc1ccccc1N1CCOCC1 | -0.33 | 0.9
CCOC(=O)c1ccc(S(=O)(=O)N2CCN(Cn3cnc4ccccc43)CC2)cc1 | · | 3.2
ON=C1CCC2CC1CC/C2=N\O | · | 1.7
CCOC(=O)c1ccc(NC(=O)c2ccc(=O)[nH]c2)cc1 | · | 0.8
O=C(OCc1ncc(-c2ccccc2)o1)C12CC3CC(CC(C3)C1)C2 | · | -0.1
CCCC1c2cccn2CCN1C(=O)NC1CCCCC1 (stereo not given) | -0.44 | -1.6
CCOC(=O)/C=c1\[nH]c(=O)/c(=C\c2ccc(C)s2)s1 | · | -11
O=C1CN(C(=O)/C=C/c2cccs2)c2ccccc2N1 | · | -0.9
Clc1ccc(NC2CCCCC2)nn1 | 1.1 | -0.6
COC(=O)C(O)(CC(=O)Nc1ccc(C)c(F)c1)C(F)(F)F (stereo not given) | -0.62 | 2.4
O=C(NC1CCCCC1)C(=S)N1CCCC1 | 0.12 | -1.1
Cc1ccc(C2CC(=O)C(C=NCCN3CCN(CC(=O)Nc4cc(C)cc(C)c4)CC3)=C(O)C2)cc1 (stereo not given) | 1.1 | 0.5
CC(C)(C)OC(=O)NC1CCN(S(=O)(=O)c2cccc(S(=O)(=O)N3CCOCC3)c2)CC1 | -0.91 | -0.7
Cc1oc2ncn(CC(C)C)c(=O)c2c1NC(=O)NC1CCCCC1 | -0.54 | -0.2
CN(C)c1ccc(CNC23CN4CN(CN(C4)C2)C3)cc1 | 0.14 | -1.1
COc1ccc(CNCc2ccc(F)cc2)cc1 | · | 1.7

Whole records, quoted from the list. Screens in order: LANA-nucl inh, BasE inh
O=C(NC1CCCCC1)C(=S)N1CCCC1 in the list: 0.12, -1.1
COc1ccc(CNCc2ccc(F)cc2)cc1 in the list: ·, 1.7

Next section.
mol | LANA-nucl inh | BasE inh
Cc1cccc(OC(C)C(=O)NN)c1C (stereo not given) | · | -0.1
O=C(CNS(=O)(=O)c1ccc(Cl)cc1)NC1CCCC1 | -0.13 | 2.1
CN(C)S(=O)(=O)c1ccc2c(c1)nc(CCC(=O)Nc1ccc3c(c1)OCO3)n2C | · | -0.4
O=C(O)CC1CCS(=O)(=O)C1 (stereo not given) | -0.2 | 3.2
Cc1cc(C)c(NC(=O)CSC2=NN3CCCC(=O)N=C3S2)c(C)c1 | 0.89 | 1.1
CC(=O)N1CC(C)Oc2ccc(S(=O)(=O)Nc3ccc(Cl)cn3)cc21 (stereo not given) | -1.8 | 0.9
CC1(c2ccccc2)NC(=O)NC1=O (stereo not given) | · | -0.6
O=C(COC(=O)c1ccc2c(c1)S(=O)(=O)N=C1CCCCCN12)Nc1cccc2nsnc12 | · | 0.2
CN1CCN(c2ccccc2/C=N/NC(=O)c2cccnc2)CC1 | -1.5 | 1.1
CC(C)(C)c1cc(-c2csc(-c3ccno3)n2)cc(C(C)(C)C)c1O | · | 1.6
Cc1cc(C)n(-c2ccc(C(=O)OCc3nc4ccccc4[nH]3)cc2)n1 | · | 0.8
CCOC(=O)C1CCCN(C(=O)CCCN2C(=O)CSc3ncccc32)C1 (stereo not given) | -1.1 | 1.6
CCOc1cc(CN2CCN(c3cccc(C(F)(F)F)c3)CC2)ccc1OC | 0.035 | 1.0
Cc1ccc(S(=O)(=O)Nc2cc(C(=O)NCC3CCCO3)ccc2N2CCCCC2)cc1 (stereo not given) | 0.99 | -0.6
COc1ccc(NC(=O)CCN2CCN(S(=O)(=O)c3cc(Cl)ccc3OC)CC2)cc1 | 0.18 | -0.2
O=S(=O)(c1ccc(F)cc1)N(Cc1ccc2c(c1)OCO2)S(=O)(=O)c1ccc(F)c(F)c1 | · | 2.1
O=C(c1ccccc1C(F)(F)F)N1CCc2ccccc21 | · | -0.9
O=C(O)c1ccccc1OCCOc1ccccc1C(=O)O | -0.4 | -1.4
Cc1noc(C)c1Cn1nnc(-c2cccc(C(F)(F)F)c2)n1 | · | -1.1
CC(=O)SC(C)CC(=O)Nc1ccccc1 (stereo not given) | -0.035 | 3.3
O=C1CC(c2ccco2)Sc2nc(-c3ccc(F)cc3)nn21 (stereo not given) | -0.3 | -3.7
CCc1ccc2[nH]c(C(=O)NCCc3ccccc3)cc2c1 | · | 0.2
CCCN(CCC)C(=O)Nc1cn(CC(C)C)c(=O)c2ccccc12 | · | 2.0
N#Cc1nc2c(C#N)c3ccc4ccccc4n3c2nc1C#N | · | 17
O=C(Nc1ccccc1C(=O)NCCCN1CCCC1)C1=CSCCO1 | -0.78 | -25
O=C(Nc1ccccc1)Nc1csc(-c2ccc(C(F)(F)F)cc2)n1 | · | -0.4
O=C(CSc1nc2ccccc2c(=O)[nH]1)c1ccc(-c2ccccc2)cc1 | · | 0.3
N#CC1=C(N)SC2CSCC2=C1 (stereo not given) | · | 0.6
CCCc1nc2ccccc2n1CC(=O)N(CC)C1CCCCC1 | · | -0.3
COc1ccc(-c2nsc3c(N4CCCCC4C)ncnc23)cc1 (stereo not given) | 0.4 | 1.2
CCC(C)NC(=O)CSc1ccc(S(=O)(=O)N2CCN(Cc3ccccc3)CC2)cn1 (stereo not given) | · | 0.5
Nc1nc(-c2ccco2)nn1S(=O)(=O)c1ccccc1 | 0.034 | -2.5
CCn1c(=O)c(C)nc2cc(C(=O)Nc3ccc4c(c3)OCCCO4)ccc21 | · | -1.9

Source: PubChem (ICCB-Longwood Screening Facility, Harvard Medical School)

The list is partial; count on the stated rates, not on these rows.
